HPGD block: HPGD (human) dehydrogenase inhibition | hit rate 4.3% among 150,000 | purified HPGD, NADH fluorescence kinetic, PGE2 substrate | Potency, µM, for inactives: at the highest dose activity change, negative = inhibition, usual class: inhibitors; active = well fitted inhibition curve with a large enough effect (not every such curve was filed as active); inconclusive = small, poorly fitted or top-dose-only effect, or another doubt; inactive = no such curve, though single readings can be large or run the other way;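 also: top concentration of the series not given in the record; plate controls included wells without enzyme; inactives centre near -10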
Target sequence (P15428 whole entry, looked up): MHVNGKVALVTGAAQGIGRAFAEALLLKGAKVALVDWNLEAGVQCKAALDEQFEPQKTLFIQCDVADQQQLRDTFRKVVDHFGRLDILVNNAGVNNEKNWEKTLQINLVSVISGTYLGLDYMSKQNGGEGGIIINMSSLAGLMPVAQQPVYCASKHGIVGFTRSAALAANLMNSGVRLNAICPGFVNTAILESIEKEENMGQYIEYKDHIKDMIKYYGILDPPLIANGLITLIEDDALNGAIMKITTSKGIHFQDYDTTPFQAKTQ
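NADH formation kinetics: reaction with 30 uM PGE2 and 1 mM NAD+ (final), 20 nM enzyme, Tris-HCl pH 8 with Tween 20, after 15 min compound preincubation at room temperature. Fluorescence change, last versus first of five reads.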
* marks the source's active call; other numbers are inactive results; ? = inconclusive; & = joins results of further samples. % is scaled to controls: 0 for no effect and ±100 for the full control effect; potency is read from the fitted curve at half-maximal effect. Only part of the results is shown. The share of hits here may be higher or lower than overall.

SMILES | HPGD block
O=c1cc(-c2ccc(O)cc2)oc2cc(O)ccc12 | ?
O=C(O)COC(=O)Cc1ccccc1Nc1c(Cl)cccc1Cl | -14%
Nc1nccs1 | -5%&-6%
O=C1NC(=O)[C@@]2(CCOc3ccc(F)cc32)N1 | -2%
Cc1nnc(NS(=O)(=O)c2ccc(N)cc2)s1 | -8%&-1%&-10%&-4%
O=C1NCC2(CCN(CCc3ccccc3)CC2)O1 | -16%&1%&1%
COc1cc2nc(N3CCN(C(=O)C4COc5ccccc5O4)CC3)nc(N)c2cc1OC (stereo not drawn) | ?
CCCCCC(=O)O[C@@]1(C(C)=O)CCC2C3CCC4=CC(=O)CC[C@@]4(C)C3CC[C@]21C (stereo partly drawn) | ?
NS(=O)(=O)c1cc2c(cc1C(F)(F)F)NC(Cc1ccccc1)NS2(=O)=O (stereo not drawn) | -7%&-7%
CCN(CC)C[C@@H]1CCCCN1CC(=O)N1c2ccccc2C(=O)Nc2cccnc21 | -2%
CCCOc1ccccc1-c1nc2n[nH]nc2c(=O)[nH]1 | 8.9µM*
C[C@]12CC[C@H]3[C@@H](CCC4=CC(=O)CC[C@@]43C)[C@@H]1CC[C@@H]2C(=O)CO | -4%
O=C(O)CCC/C=C\C[C@H]1C(=O)C[C@@H](O)[C@@H]1/C=C/[C@@H](O)CCc1ccccc1 | -7%
Nc1cc(-c2ccncc2)c[nH]c1=O | ?
CC(C)(C)NC[C@H](O)COc1cccc2c1C[C@@H](O)[C@@H](O)C2 | -4%
O=C(O)CN1C(=O)c2cccc3cccc(c23)C1=O | ?
CC1(C)OC2CC(=O)OCC23C1CC(=O)C1(C)C3CC[C@@]2(C)[C@H](c3ccoc3)OC(=O)C3OC312 (stereo partly drawn) | -9%
CC(C)Cc1ccc([C@H](C)C(=O)O)cc1 | -11%&-7%
COc1ccc(-c2cc(=O)c3c(O)cc(O[C@H]4OC(COC5OC(C)C(O)C(O)[C@H]5O)C(O)C(O)C4O)cc3o2)cc1O (stereo partly drawn) | -19%
c1ccc2c(CC3=NCCN3)cccc2c1 | -9%&2%&-3%
CCCOC(=O)c1ccccc1 | -7%
CC(=O)[C@H]1CC[C@H]2[C@@H]3C[C@H](C)C4=CC(=O)CC[C@]4(C)[C@H]3[C@@H](O)C[C@]12C | -6%
CC(=O)[C@@H]1CC[C@@H]2[C@@H]3C[C@H](C)C4=CC(=O)CC[C@@]4(C)[C@H]3[C@H](O)C[C@]21C | 2%
COC(=O)c1cccnc1 | -8%
COc1ccc(CN(CCN(C)C)c2ccccn2)cc1 | -4%&-11%&-3%&-19%&-8%&-1%

Next part; the last 2 above are carried over.
SMILES | HPGD block
COC(=O)c1cccnc1 | -8%
COc1ccc(CN(CCN(C)C)c2ccccn2)cc1 | -4%&-11%&-3%&-19%&-8%&-1%
CCOc1ccc(S(=O)(=O)N2CCCCCC2)c2ccccc12 | -4%
O=C(Cn1ccnc1[N+](=O)[O-])NCCO | -11%&-10%
NS(=O)(=O)c1cc2c(cc1C(F)(F)F)N[C@H](Cc1ccccc1)NS2(=O)=O | -2%
CC(C)Cc1ccc(C(C)C(=O)O)cc1 (stereo not drawn) | -10%&-6%&-11%
CC1=NN(c2ccccc2)C(=O)C1 | 5%&-17%&-1%&-12%
C=CCN1C(=O)C(CC(C)C)NC1=S (stereo not drawn) | -4%
CC(=O)NCCCCCC(=O)O | -6%
CN(C)C/C=C(/c1ccc(Br)cc1)c1cccnc1 | ?
C[C@H]1[C@H](C)CC[C@]2(C(=O)O)CC[C@]3(C)C(=CCC4[C@@]5(C)C[C@@H](O)[C@H](O)[C@@](C)(CO)[C@@H]5CC[C@]43C)[C@H]12 (stereo partly drawn) | -4%
CN1CCC(=C2c3ccccc3CCc3sccc32)CC1 | -5%&-3%
CCCC(NC(C)C(=O)N1C(C(=O)O)CC2CCCCC21)C(=O)OCC (stereo not drawn) | -12%
CC(=O)O[C@]1(C(C)=O)CC[C@H]2[C@@H]3C=C(Cl)C4=CC(=O)[C@@H]5C[C@@H]5[C@]4(C)[C@H]3CC[C@@]21C | -6%
N=C(N=C(N)N)N1CCOCC1 | -6%
Cc1onc(-c2ccccc2Cl)c1C(=O)NC1C(=O)N2C1SC(C)(C)C2C(=O)O (stereo not drawn) | ?
C=CC(C)(O)CC/C=C(\C)CCC=C(C)C (stereo not drawn) | -5%
CN(C)CCCN1c2ccccc2Sc2ccccc21 | 0%&-12%&-2%&-3%
CN(C)CCCSc1ccccc1NC(=O)/C=C\c1ccccc1 | -12%
Cc1coc2c1C(=O)C(=O)c1c-2ccc2c1CCCC2(C)C | 16µM*
C=CCSCC=C | -5%
O=P(O)(O)O | -7%
O=C1N(c2ccccc2)c2ccccc2C1(Cc1ccncc1)Cc1ccncc1 | -6%&0%
COc1ccccc1OCC(O)COC(N)=O (stereo not drawn) | -10%&-3%
CCCCCCCCO | -15%
Cc1c(C(=O)O)c(O)cc2c1C(=O)c1c(O)c([C@H]3O[C@H](CO)[C@@H](O)[C@H](O)[C@H]3O)c(O)c(O)c1C2=O | 18µM*

4 compounds drawn at random from those above:
SMILES | HPGD block
Cc1coc2c1C(=O)C(=O)c1c-2ccc2c1CCCC2(C)C | 16µM*
CC(=O)NCCCCCC(=O)O | -6%
O=C1N(c2ccccc2)c2ccccc2C1(Cc1ccncc1)Cc1ccncc1 | -6%&0%
CC(C)Cc1ccc(C(C)C(=O)O)cc1 (stereo not drawn) | -10%&-6%&-11%

4 compounds already listed, arranged by their value in HPGD block, falling.
SMILES | HPGD block
C=CCN1C(=O)C(CC(C)C)NC1=S (stereo not drawn) | -4%
C=CCSCC=C | -5%
CC(=O)NCCCCCC(=O)O | -6%
CCCC(NC(C)C(=O)N1C(C(=O)O)CC2CCCCC21)C(=O)OCC (stereo not drawn) | -12%

Structures listed so far with a Cl atom:
SMILES | HPGD block
O=C(O)COC(=O)Cc1ccccc1Nc1c(Cl)cccc1Cl | -14%
CC(=O)O[C@]1(C(C)=O)CC[C@H]2[C@@H]3C=C(Cl)C4=CC(=O)[C@@H]5C[C@@H]5[C@]4(C)[C@H]3CC[C@@]21C | -6%
Cc1onc(-c2ccccc2Cl)c1C(=O)NC1C(=O)N2C1SC(C)(C)C2C(=O)O (stereo not drawn) | ?

Bioassay records as filed in PubChem BioAssay.
